Screens (PubChem)
HPGD inh = inhibitors of human 15-hydroxyprostaglandin dehydrogenase (HPGD) | 150,000 tested, 4.3% active | AID 894 | P15428 | purified HPGD, NADH fluorescence kinetic, PGE2 substrate | Potency, µM, for inactives: at the top dose activity change, negative = inhibition, hits mostly inhibitors; active = well fitted inhibition curve with a large enough effect (not every such curve was filed as active); inconclusive = small, poorly fitted or top-dose-only effect, or another doubt; inactive = no such curve, though single readings can be large or run the other way;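 note: top concentration of the series not given in the record; plate controls included wells without enzyme; inactives centre near -10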
Target sequence (P15428 whole entry, looked up): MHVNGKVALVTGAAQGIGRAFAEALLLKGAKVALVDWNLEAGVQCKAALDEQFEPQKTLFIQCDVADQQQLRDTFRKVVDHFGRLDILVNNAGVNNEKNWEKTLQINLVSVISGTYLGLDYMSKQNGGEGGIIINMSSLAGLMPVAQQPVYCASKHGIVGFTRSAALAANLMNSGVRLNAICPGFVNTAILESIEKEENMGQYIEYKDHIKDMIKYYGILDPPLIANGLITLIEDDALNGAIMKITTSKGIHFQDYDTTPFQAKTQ
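NADH formation kinetics: reaction with 30 uM PGE2 and 1 mM NAD+ (final), 20 nM enzyme, Tris-HCl pH 8 with Tween 20, after 15 min compound preincubation at room temperature. Fluorescence change, last versus first of five reads.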
* hit, by the source's call; ? = inconclusive. % is set by controls: 0 for no effect and ±100 for the full control effect; potency is the fitted concentration of half-maximal effect. These rows are one share of the data, so the mix of outcomes need not match the whole.

HPGD inh	SMILES
0.4%	COc1ccc(-c2noc(-c3cc(Cl)ccc3Cl)n2)cc1OC
-10.4%	COc1ccccc1Cn1cnc2cccnc21
-7.6%	COc1ccc(-c2cc(C#N)nc(N3CCNCC3)n2)cc1
-0.6%	NNC(=O)C1=NOC(CNc2ncc(C(F)(F)F)cc2Cl)C1 (centres undefined)
?	O=C(N/N=C/c1ccccc1Cl)c1cccc(F)c1
-12.0%	CCCC(=O)Nc1ccc(C(=O)Nc2nnc(COC)s2)cc1
?	COc1ccc(NCc2nnc(SCC(=O)Nc3nc(-c4ccccc4)cs3)n2-c2ccccc2)cc1
-25.7%	COc1ccc2[nH]c(C(=O)O)c(NS(=O)(=O)c3ccc(OC)c(OC)c3)c2c1
20µM*	O=C(N/N=C\c1ccc(-c2ccc([N+](=O)[O-])cc2)o1)C1COc2ccccc2O1 (centres undefined)
?	COc1ccc2cc3cc(C(=O)NCC4COc5ccccc5O4)oc3nc2c1 (centres undefined)
1.5%	O=C(O)C1CCCN1C(=O)c1cccs1 (centres undefined)
-18.1%	COc1ccc(-c2cnc(N)n2CC2CCCO2)cc1 (centres undefined)
?	CCOC(=O)c1[nH]c2cc(OC)c(OC)cc2c1NC(=O)C(C)N1CCN(Cc2ccccc2)CC1 (centres undefined)
-1.6%	CCC(C)Nc1nc2c(c(=O)n(C)c(=O)n2C)n1Cc1cccc(C)c1 (centres undefined)
?	COc1ccccc1C(=O)Nc1nc2ccc(S(C)(=O)=O)cc2s1
-9.6%	COc1ccc(-n2c(=O)[nH]cc(C(=O)N3CCc4ccccc43)c2=O)cc1
-5.1%	Cc1ccc(C)c(NC(=O)Cc2csc(-c3ccccc3)n2)c1
-24.4%	CCCCCCCCCCS(=O)(=O)N/N=C/c1ccc([N+](=O)[O-])cc1
-13.3%	CCN(CCC(=O)Nc1cc([N+](=O)[O-])ccc1OC)Cc1ccccc1
-29.8%	COc1ccc(CCN/C=C2/CC(=O)NC2=O)cc1OC

Some of the entries above, reformatted.
SMILES | HPGD inh
NNC(=O)C1=NOC(CNc2ncc(C(F)(F)F)cc2Cl)C1 (centres undefined) | -0.6%
O=C(N/N=C/c1ccccc1Cl)c1cccc(F)c1 | ?
CCCC(=O)Nc1ccc(C(=O)Nc2nnc(COC)s2)cc1 | -12.0%
COc1ccc(NCc2nnc(SCC(=O)Nc3nc(-c4ccccc4)cs3)n2-c2ccccc2)cc1 | ?
COc1ccc2[nH]c(C(=O)O)c(NS(=O)(=O)c3ccc(OC)c(OC)c3)c2c1 | -25.7%
O=C(N/N=C\c1ccc(-c2ccc([N+](=O)[O-])cc2)o1)C1COc2ccccc2O1 (centres undefined) | 20µM*

Continued.
HPGD inh	SMILES
-1.8%	Cc1cc2ncn(C(=O)c3c(-c4c(Cl)cccc4Cl)noc3C)c2cc1C
-18.5%	O=C(CSc1nc(C2CC2)nc2ccccc12)N1c2ccccc2Sc2ccccc21
-12.5%	Cn1c(=O)c2c(n(C)c1=O)=NC1(CCCCC1)ON=2
-19.5%	COC(=O)COc1ccc(S(=O)(=O)N2CCc3ccccc3C2)cc1
-12.4%	CCOc1nc(SC(C(C)=O)C(=O)Nc2ccccc2)nc(N(C)C)n1 (centres undefined)
2.24µM*	Cc1nnc(Sc2cc(C(=O)NCc3ccco3)c3ccccc3n2)s1
-8.9%	CCCCN(C)C1=Nc2cccc3cccc1c23
-19.0%	Cc1c(Cl)c([N+](=O)[O-])nn1CCCC(=O)N(Cc1ccccc1)Cc1ccccc1
2.1%	COc1nc(N(CC(N)=O)S(=O)(=O)c2ccccc2)nc(C)c1Cl
-5.9%	Cc1ccc(OCC(O)CN2CCN(Cc3ccc4c(c3)OCO4)CC2)cc1C (centres undefined)
-5.1%	Cc1nn(C2CCS(=O)(=O)C2)c(Cl)c1/C=C/C(=O)OCC(=O)c1c[nH]c2ccccc12 (centres undefined)
-12.2%	CCOc1cc(C2C3=C(CCCC3=O)Nc3nc(C(=O)OC)nn32)ccc1OC (centres undefined)
-12.8%	Cc1onc(-c2ccccc2Cl)c1C(=O)Nc1ccccc1C(=O)NC(C)C
1.5%	COc1ccc(C(CC(=O)O)NC(=O)OC(C)(C)C)cc1 (centres undefined)
-6.2%	COC(=O)c1ccc(CSc2nnc(NC(=O)C3CC(=O)N(Cc4ccc(C)cc4)C3)s2)cc1 (centres undefined)
-8.9%	Cc1ccc(NC(=O)c2cc(C)nn2-c2ccccc2)cc1
?	COc1cccc(/C=N/NC(=O)CC2C(=O)NN=C2C)c1OC (centres undefined)
-10.7%	CCOC(=O)c1cccc(NC(=O)CN(C)S(=O)(=O)c2cnc[nH]2)c1
-22.0%	O=c1[nH]c(CCl)nc2cc(-c3ccc(Cl)cc3)sc12
-11.4%	CCCCCCC(C)NC(=S)Nc1cc(S(=O)(=O)N(C)C)ccc1C (centres undefined)
-7.3%	CS(=O)(=O)N(Cc1ccc(Cl)cc1)c1ccc(C(=O)N2CCN(c3ccccc3)CC2)cc1
?	CC(=O)Oc1ccc(C(=O)[C@H]2[C@H]3C(=O)N(c4ccccc4)C(=O)[C@H]3[C@@H]3C=CC=NN32)cc1
-12.4%	Cc1ccc(-c2ccc(=O)n(CC(=O)NCCN3CCCCC3C)n2)cc1 (centres undefined)
-7.1%	NC(=O)/N=C(\N)NC(=O)c1ccccc1
?	CCOC(=O)c1c(NC(=S)Nc2cccc(C)c2)sc2c1CC(C)(C)SC2
-16.1%	O=C1CN(C(=O)c2ccc(Br)o2)C(c2ccccc2)c2cc(Br)ccc2N1 (centres undefined)
-11.2%	O=C(OCC(=O)N1CCc2ccccc21)c1cccnc1Cl
-25.2%	Cc1ccc(NC(=O)c2ccc(CSc3nnc(-c4ccncc4)n3C)cc2)c(C)c1
0.0%	CCN(CC)S(=O)(=O)c1cccc(C(=O)Nc2ccccc2)c1
?	Cc1sc2ncnc(N3CCN(CCOc4ccc(Cl)cc4)CC3)c2c1C
-5.3%	COc1ccc(C(=O)C2CCCCC2=O)cc1 (centres undefined)
-19.3%	CCC(C)(C)C
-1.9%	COC(=O)c1ccc2nc(C)cc(Nc3ccc(N(C)C)cc3)c2c1
-10.3%	O=C(CSc1nnc(COc2ccc3c(c2)CCCC3)o1)Nc1ccc(F)cc1
14.1µM*	C=C(C)CSc1nc2nc(C)c(Br)cc2[nH]1
-26.3%	CCCS(=O)(=O)NCc1cn2cccc(C)c2n1
-12.1%	Cc1ccc(-c2cc(C(F)F)nc(N3CCC(C)CC3)n2)cc1
-7.6%	O=[N+]([O-])c1cc(C(F)(F)F)ccc1NN=C1CCCC1
22.4µM*	O=C(Cc1ccccc1)c1nc2ccccc2s1
-27.6%	CSc1cc(-c2ccccc2)n(Cc2c(Cl)cccc2Cl)c(=O)c1C#N
-0.4%	COc1ccc(N(C(=O)c2cccc(OC)c2OC)C2C=CS(=O)(=O)C2)cc1 (centres undefined)
-0.5%	COc1ccc(C2SCC(C(=O)O)N2C(C)=O)cc1 (centres undefined)
-18.9%	CCOC(=O)c1ccc2c(c1)nc(SC/C(O)=C(\C#N)c1nc3ccccc3[nH]1)n2CC
-8.1%	Cc1onc(-c2ccccc2)c1C(=O)Nc1cccnc1
?	Cc1cc2nc(-c3ccc(SCC(=O)Nc4ccc5c(c4)OCCO5)nc3)[nH]c2cc1C
-16.9%	CCCN1C(=O)/C(=N\OCC(=O)NCC(F)(F)F)c2ccccc21
?	CCOc1ccc(/C(O)=C2/C(=O)C(=O)N(c3ncccn3)C2c2ccccc2)cc1 (centres undefined)
-8.0%	Cc1ccc(N2CC(C(=O)Nc3nccs3)CC2=O)cc1 (centres undefined)
3.9%	Cc1cc(C)nc(-n2nc(C)cc2NC(=O)CN2CCc3ccccc3C2)n1
-2.5%	Cc1cc(C)n(CC2CC(=O)N(c3ccc(Cl)c(Cl)c3)C2=O)n1 (centres undefined)
-13.5%	Cc1ccccc1NC(=O)/C(=C/c1ccccc1)c1ccccc1
-21.6%	CCc1nnc(NC(=O)CSc2nnc(-c3ccc(S(=O)(=O)N4CCCC4)cc3)n2CC)s1
-18.2%	O=S(=O)(c1ccc(NC(=S)NCc2ccco2)cc1)N1CCCC1
-14.5%	COC(=O)Nc1ccc(S(=O)(=O)NCCO)cc1
-4.3%	O=C(O)c1cc(=O)[nH]c(=S)[nH]1
-6.2%	Cc1cccc(C)c1NC(=O)COC(=O)c1cc(-c2cccnc2)nc2ccccc12
-17.0%	Cc1ccc(S(=O)(=O)NN=C2C3CC4CC(C3)CC2C4)cc1[N+](=O)[O-]
?	CC(=O)N1CCc2c(sc(NC(=O)CN3C(=O)CCC3=O)c2C(N)=O)C1
-6.8%	COc1ccc(-c2nc(Cn3c(SCc4ccccc4F)nc4ccncc43)c(C)o2)cc1
-5.8%	S=C1NCCOCCOCCOCCN1

Following part
HPGD inh	SMILES
-3.9%	COc1ccc(OCC(=O)NNC(=O)c2ccc(-c3ccccc3)cc2)cc1
-8.0%	COc1ccc(NC(=O)C2OCCc3ccccc32)c(OC)c1 (centres undefined)
-13.8%	Cc1cnc(C(=O)OCC(=O)Nc2ccc(Cl)cc2Cl)cn1
-6.1%	COC(=O)C1=C(C)NC(=S)N(C(C)=O)C1c1ccccc1 (centres undefined)
-4.7%	O=C(NCc1ccncc1)C(=O)NCC(c1ccco1)N1CCN(c2ccccc2F)CC1 (centres undefined)
-11.4%	N/C(=N\OC(=O)c1ccc2ccccc2c1)c1ccc(Br)cc1
-2.0%	Cc1ccc(NC(=O)CSc2nnc(-c3cnccn3)n2Cc2ccco2)cc1
-9.7%	O=C1OC(c2ccccc2)c2ccccc21 (centres undefined)
-5.8%	CCOC(=O)c1c(NC(C)=O)sc2c(OC(C)=O)cccc12
?	Cc1cc2nc(C)c(=O)n(C)c2cc1C
-16.8%	O=C(NCCCCCCNC(=O)c1ccc(Br)s1)c1ccc(Br)s1
-20.7%	CC(C)CNc1nnnc2c1sc1nc(N3CCOCC3)c3c(c12)CC(C)(C)SC3
-16.3%	C=CCc1cccc2cc(C(=O)OCC(=O)c3ccccc3)c(=O)oc12
-13.1%	O=C(CN1CCOCC1)Nc1ccccc1-c1ccccc1
-11.2%	C=C(C)c1cccc(C(C)(C)NC(=O)N(Cc2ccccc2)Cc2ccco2)c1
-8.6%	Cc1nc([N+](=O)[O-])c(Br)n1CC(=O)c1ccc(Br)cc1
-3.0%	COc1ccc(C(=O)N(CN2CCCC2=O)c2cc(C)on2)cc1OC
-4.5%	O=C(NC1CCCCC1)C(c1ccncc1)N(C(=O)Cn1nnc(-c2cccs2)n1)C1CCCC1 (centres undefined)
-8.1%	Cc1cc(C)c(N2CCN(S(=O)(=O)N3CCCCCC3)CC2)c(C)c1
-11.9%	CC1=CCC2C(=O)N(c3ccc4ccccc4n3)C(=O)C2C1 (centres undefined)
-20.2%	O=C(Cc1cccs1)NCC1CCCO1 (centres undefined)
1.0%	Cn1c(=O)[nH]c(=O)c2c1nc(Sc1ncccn1)n2CCCc1ccccc1
?	N#Cc1cnn(-c2nc3sc4c(c3c(=O)[nH]2)CCCC4)c1N
-5.0%	CCOC(=O)C1CCCCN1Cc1cccc(F)c1 (centres undefined)
-14.4%	Nn1c(SCCOc2ccccc2)nnc1-c1cccnc1
-9.8%	COc1ccc(C(=O)NC(C)c2nnc(SCc3ccc(Cl)c(Cl)c3)n2C)cc1 (centres undefined)
-12.4%	Cc1ccc(C)c2[nH]c(=O)c(CN(Cc3ccco3)S(=O)(=O)c3ccc4c(c3)OCCO4)cc12
-9.2%	COC(=O)C1=C(C(=O)OC)[C@@H]2Nc3ccccc3[C@@]23C[C@@H](C(=O)OC)N(C(=O)CC(C)C)C3=N1
-1.0%	Cc1ccc(NC2=NC3(CCCCC3)N=C(N)N2)c(C)c1
10µM*	O=C(C1CCC1)N1CCc2cc(S(=O)(=O)NC3CCCC3)ccc21
14.1µM*	CC1CCCC(C)N1C(=O)c1cc(-c2cccs2)on1 (centres undefined)
-2.4%	COc1cc(C2C(C(=O)OC(C)C)=C(C)Nc3[nH]c(=O)[nH]c(=O)c32)ccc1O (centres undefined)
-5.9%	CCCCCn1c(CNC(C)=O)nc2ccccc21
?	C[C@@](N)(Cc1ccc(O)c(O)c1)C(=O)O
-15.6%	CCN(CCCn1c(SCC#N)nc2ccccc2c1=O)c1ccccc1
15.8µM*	CCOC(=O)c1c(NC(=O)c2cccs2)sc(C(=O)N(C)C)c1C
-1.1%	CC(=O)/C(=N\Nc1cccc(Cl)c1)Sc1cccc2cccnc12
-24.4%	COc1ccc(NC(C)C(=O)Nc2cc(C(F)(F)F)ccc2N2CCOCC2)c(OC)c1 (centres undefined)
-18.7%	C/C(=N\NC(=O)C(=O)Nc1ccc(C)c(Cl)c1)c1ccncc1

Looked up above.
`O=C(C1CCC1)N1CCc2cc(S(=O)(=O)NC3CCCC3)ccc21` – HPGD inh: 10µM*
`COC(=O)C1=C(C(=O)OC)[C@@H]2Nc3ccccc3[C@@]23C[C@@H](C(=O)OC)N(C(=O)CC(C)C)C3=N1` – HPGD inh: -9.2%
`COc1ccc(NC(C)C(=O)Nc2cc(C(F)(F)F)ccc2N2CCOCC2)c(OC)c1` (centres undefined) – HPGD inh: -24.4%
`Nn1c(SCCOc2ccccc2)nnc1-c1cccnc1` – HPGD inh: -14.4%
`CC1CCCC(C)N1C(=O)c1cc(-c2cccs2)on1` (centres undefined) – HPGD inh: 14.1µM*
`O=C(Cc1cccs1)NCC1CCCO1` (centres undefined) – HPGD inh: -20.2%

Rewritten with bars between the fields: part of the list above
compound | HPGD inh
COc1ccc(NC(C)C(=O)Nc2cc(C(F)(F)F)ccc2N2CCOCC2)c(OC)c1 (centres undefined) | -24.4%
CCCCN(C)C1=Nc2cccc3cccc1c23 | -8.9%
CCN(CC)S(=O)(=O)c1cccc(C(=O)Nc2ccccc2)c1 | 0.0%
C=C(C)c1cccc(C(C)(C)NC(=O)N(Cc2ccccc2)Cc2ccco2)c1 | -11.2%
S=C1NCCOCCOCCOCCN1 | -5.8%
